# INS promoter inh: TRM-6 insulin promoter activity inhibition; TRM-6 cells (human fetal islet line), insulin promoter-eGFP reporter, imaging; reporter expression induced with tamoxifen; inhibition, % at 2 µM; 130,000 compounds, 0.9% hits;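 active means inhibition above the mean plus 3 SD, with well images judged a real hit on visual review, cut at about 60% in these data, passing the limit was not always enough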
# PKD1 inh: inhibitors of human PKD1 kinase; Q15139; PKD1 kinase fluorescence polarization assay; inhibition, %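 (about 10 µM by stock and volumes)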; 200,000 compounds, 0.056% hits; AID 797;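 active means inhibition of 50% or more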;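 further: controls were vehicle for no effect and a reference inhibitor for full effect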
# RGS16-Gao: RGS16-Galphao interaction regulator (human); O15492+P09471; bead-based flow cytometry RGS16-Galphao binding, fluorescence; actives lie on both sides; binding response (% of control), % at 10 µM; 220,000 compounds, 0.38% hits; AID 1441;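 active means below 25% or above 175%, edge rows of some plates excepted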;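 further: Galphao activated by GDP with aluminum fluoride before binding; 100% = wells without compound and 0% = beads without RGS; some results beyond the cut were filed as inactive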
# Target sequence (O15492 whole entry, looked up): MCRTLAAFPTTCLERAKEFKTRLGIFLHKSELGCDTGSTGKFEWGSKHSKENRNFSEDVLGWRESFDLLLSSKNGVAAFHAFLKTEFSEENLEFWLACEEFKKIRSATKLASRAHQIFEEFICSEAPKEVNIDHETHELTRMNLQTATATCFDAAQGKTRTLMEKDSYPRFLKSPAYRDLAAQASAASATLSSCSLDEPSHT
# Target sequence (P09471 whole entry, looked up): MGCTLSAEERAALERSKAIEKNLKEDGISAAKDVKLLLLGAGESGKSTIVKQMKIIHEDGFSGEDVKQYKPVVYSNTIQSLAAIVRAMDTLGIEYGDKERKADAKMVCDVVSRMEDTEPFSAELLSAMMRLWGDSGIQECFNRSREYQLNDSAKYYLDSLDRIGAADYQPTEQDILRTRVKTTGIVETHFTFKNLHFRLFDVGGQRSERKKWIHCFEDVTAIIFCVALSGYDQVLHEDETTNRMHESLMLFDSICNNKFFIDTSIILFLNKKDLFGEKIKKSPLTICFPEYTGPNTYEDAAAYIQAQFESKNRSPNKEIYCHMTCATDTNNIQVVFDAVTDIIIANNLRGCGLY
# GALR2 ag: agonists of human galanin receptor 2 (GALR2) | O43603 | GALR2-expressing cells, agonist activation read-out | activation, %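 (tested at 5 µM)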 | 140,000 compounds, 0.48% hits | AID 803;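 active means above mean plus 3 SD of all compounds, about 5% in these data, not always enough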;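 further: 0% = vehicle buffer wells and 100% = reference agonist at full effect; tested in CHO reporter cells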
# Target sequence (O43603 whole entry, looked up): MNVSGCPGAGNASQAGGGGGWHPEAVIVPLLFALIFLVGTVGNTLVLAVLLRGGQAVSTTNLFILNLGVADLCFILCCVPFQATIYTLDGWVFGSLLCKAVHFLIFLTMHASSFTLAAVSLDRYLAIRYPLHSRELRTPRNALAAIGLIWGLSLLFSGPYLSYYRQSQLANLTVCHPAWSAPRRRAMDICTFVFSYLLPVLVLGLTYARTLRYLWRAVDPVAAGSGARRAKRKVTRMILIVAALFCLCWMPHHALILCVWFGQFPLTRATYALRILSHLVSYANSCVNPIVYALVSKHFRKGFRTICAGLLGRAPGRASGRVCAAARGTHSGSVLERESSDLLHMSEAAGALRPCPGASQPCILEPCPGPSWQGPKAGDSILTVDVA
# HSV replic up: HSV replication enhancement | HSV replication augmentation in cells, fold increase | maximum fold increase | 220,000 compounds, 0.005% hits | AID 1956;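 active means peak rise of 1.5-fold or more in the series; tested in PC3 cells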;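 further: first round at 10 µM; read as green reporter fluorescence; hits show the peak of a series up to 25 µM; 1 = signal of infected wells without compound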
# INS promoter inh cell count: further read-out of INS promoter inh, marked with its call; normalized cell count, %; measured here: cell count, toxicity; reference of the scale not given here;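 cells exposed to compound for 48 h; stained nuclei by imaging scaled within each plate; lower means fewer cells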
# HSV replic up primary fold: also measured in HSV replic up; calls as there; fold increase; compound at 10 µM; measured here: primary screen fold increase 10 uM; tested in PC3 cells;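 GFP signal in the first replicate; 1 = infected wells without compound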
# * = called active by the depositor; i = inactive; · = no result given.
# A first look (2 entries):
compound	INS promoter inh	INS promoter inh cell count	PKD1 inh	RGS16-Gao	GALR2 ag	HSV replic up	HSV replic up primary fold
Cc1cc(C)cc(C(=O)NCC(=O)OCC(=O)N(C)C2CCS(=O)(=O)C2)c1 (centres undefined)	33	132	-7	98	-0.6	i	0.9
COc1cccc(NC(=O)CSc2nnc3cc(C)nc(N)n23)c1	·	·	-4	110	·	i	0.86

# The list itself, from the first entry:
compound	INS promoter inh	INS promoter inh cell count	PKD1 inh	RGS16-Gao	GALR2 ag	HSV replic up	HSV replic up primary fold
Cc1cc(C)cc(C(=O)NCC(=O)OCC(=O)N(C)C2CCS(=O)(=O)C2)c1 (centres undefined)	33	132	-7	98	-0.6	i	0.9
COc1cccc(NC(=O)CSc2nnc3cc(C)nc(N)n23)c1	·	·	-4	110	·	i	0.86
COC(=O)c1ccccc1NC(=O)COc1ccc(S(=O)(=O)N2CCCC2)cc1C	-10	113	1	103	-2.1	i	1
Cn1nc(SCC(=O)O)sc1=S	·	·	10	108	-1.9	i	0.99
COc1cccc(Nc2ncccc2C(=O)NCc2ccccc2)c1	-134	80	-9	118	-2.9	i	1
O=C(NNS(=O)(=O)c1ccc(Cl)cc1Cl)c1cc2ncc(C(F)(F)F)cc2s1	·	·	·	100	·	i	0.97
Cc1cccc(Cn2c(=O)n(-c3ccc(CC(=O)NCc4ccco4)cc3)c(=O)c3sccc32)c1	·	·	-5	96	-2.6	i	0.61
CN(C)c1nc(N2CCN(c3ccccc3)CC2)c(C#N)c(=O)o1	19	86	-16	102	-1.0	i	0.97
CN1C(=O)CS(=O)c2ccc(C(=O)NC3CC3)cc21 (centres undefined)	·	·	4	103	-2.2	i	1
CN(C(=O)COC(=O)c1cc(-c2ccccc2Cl)nc2ccccc12)C1CCS(=O)(=O)C1 (centres undefined)	33	112	4	104	2.6	i	0.91
Cc1ccc(S(=O)(=O)Nc2ccccc2-c2ccccc2NS(=O)(=O)c2ccc(C)cc2)cc1	-10	62	-6	64	-1.0	i	1.1
CN=C(Nc1cccc(OC)c1)SC1CC(=O)N(c2ccc(C(=O)O)cc2)C1=O (centres undefined)	52	111	1	99	-1.6	i	0.99
O=C(NCCc1csc(-c2cccnc2)n1)c1cccc(Cl)c1	·	·	·	100	·	i	0.96
CCn1cc(CN2CCN(CCc3ccccc3)C(CCO)C2)c(C)n1 (centres undefined)	·	·	-2	105	·	i	0.91
O=C(c1ccccc1C(=O)N(c1ccccc1)c1ccccc1)N1CCCCC1	-38	58	-4	120	-1.7	i	0.78
CC(=O)Nc1ccc(N(C(=O)CNC(=O)c2cccs2)C(C(=O)NC(C)(C)C)c2ccccc2)cc1 (centres undefined)	-5	59	-7	115	·	i	0.93
COc1ccc(N2C(=O)C3CCCN3C2c2cccc(OC)c2OC)cc1 (centres undefined)	·	·	-17	100	-0.3	i	1.2
O=S(=O)(c1cc(Br)c(Cl)s1)N1CCCC1	·	·	·	99	·	i	1.1
Cc1ccc(-n2ncc3c(=O)n(Cc4cccnc4)cnc32)cc1	·	·	0	100	-2.3	i	0.73
CCN(CC)P(=O)(Nc1ccc([N+](=O)[O-])cc1)c1c(C)nn(CCC#N)c1NC(=O)c1ccc(Cl)cc1Cl (centres undefined)	·	·	0	101	·	i	0.65
COc1ccccc1-c1nnc(SCC(=O)Nc2ccc(S(N)(=O)=O)cc2)n1C	31	146	-7	99	0.5	i	1.2
COc1ccc(C2NC(=O)NC(O)(C(F)(F)F)C2C(=O)c2ccc(C)cc2)cc1 (centres undefined)	·	·	-8	100	-1.4	i	0.97
O=C(Nc1nc(-c2ccccc2)cs1)Nc1ccc(F)cc1F	·	·	-1	97	·	i	0.81
NC(=S)N/N=C/c1c(O)c(Br)cc2oc3c(c12)CCCC3	·	·	·	99	·	i	0.91
COc1cccc(-n2c(COc3ccc(C)cc3)nnc2SCC(N)=O)c1	·	·	8	101	-0.9	i	1
COc1ccc(CN(C(=O)c2ccco2)c2ccc(C)c(C)c2)cc1	-26	26	1	105	·	i	0.76
CCC(CC)c1nnc(NC(=O)c2c(-c3ccccc3)noc2C)s1	·	·	-4	101	-2.1	i	0.92
COC(=O)CNC(c1ccccc1)c1cc(Br)ccc1NC(=O)CNC(=O)OCc1ccccc1 (centres undefined)	14	109	4	104	-0.7	i	0.71
O=C(NCC1OCCCN1S(=O)(=O)c1cc(F)ccc1F)C(=O)NC1CCCCCC1 (centres undefined)	·	·	-1	100	·	i	1.1
Cc1ccc(NC(=O)N/C=C/c2ccco2)c(C)c1	3	84	-1	99	-1.9	i	0.91
Cn1nccc1NC(=O)CC1(CC(=O)O)CCCCC1	·	·	·	104	·	i	1.1
O=C(COC(=O)CCC(=O)c1ccc(F)cc1)Nc1ccc(N2CCOCC2)cc1	·	·	14	202	-1.9	i	1.1
CC(=O)c1ccc(N2CCN(S(=O)(=O)c3cccc4nsnc34)CC2)cc1	-17	73	-4	100	·	i	1.3
CC1(C)CC(NCCN2CCN(C3=CC(=C(C#N)C#N)CC(C)(C)C3)CC2)=CC(=C(C#N)C#N)C1	·	·	-5	103	·	i	0.84
CCc1cc2c(=O)c(-c3nc4ccccc4n3C)c(C)oc2c(CN2CCCCC2)c1O	·	·	·	107	·	i	0.83
CC(=O)N[C@@H](CS)C(=O)O	-13	113	-11	·	-2.1	·	·
Cc1ccc2nc(-c3cccnc3)cc(C(=O)N3CCN(c4ccc([N+](=O)[O-])cc4)CC3)c2c1	·	·	-6	102	·	i	0.73
Cc1ccc(C)c(N2CCN(C(=O)COc3cc(=O)n(C)c4ccccc34)CC2)c1	9	119	-17	95	-1.7	·	·
O=C(CS(=O)(=O)Cc1ccccc1)N1CCc2ccccc2C1	44	83	-6	85	-1.4	i	1
CC(=O)NC1C(=O)N(CCc2ccccc2)c2ccccc21 (centres undefined)	·	·	-16	95	-2.1	i	1
CC(C)CNS(=O)(=O)c1ccc(C(=O)Nc2ccc3c(c2)OCCO3)cc1	·	·	5	93	-2.1	i	0.64
CNC(=O)COC(=O)c1ccc([N+](=O)[O-])cc1Cl	·	·	6	105	-0.6	i	1.1
CN(c1c(C#N)c(C(F)(F)F)nn1C)N(S(C)(=O)=O)S(C)(=O)=O	0	147	-4	106	·	i	1
CCOC(=O)c1ccc(NC(=O)C2C3C=CC(C3)C2C(=O)O)cc1 (centres undefined)	·	·	-8	93	-0.4	i	0.98
O=C(CSc1nc2ccccc2c(=O)[nH]1)c1ccc(O)c(O)c1	·	·	5	94	-0.9	i	1
CC1=C(C(=O)Nc2ccccc2)C(c2ccccn2)n2ncnc2N1 (centres undefined)	-64	53	-6	101	-0.7	·	·
C#CCNC(=O)C1=C[C@H](c2ccc(C(F)(F)F)cc2)[C@@H](CCCO)[C@H](OCC)O1	·	·	1	95	·	i	1
CCn1c(SCC#N)nc2c(c1=O)C1(CCCC1)Cc1ccccc1-2	9	90	6	96	-0.9	i	0.93
Cc1noc(C)c1COC(=O)CCCc1nc2ccccc2s1	-24	103	-2	100	-1.2	i	0.92
CN(N)c1nc2ccccc2nc1C(F)(F)F	·	·	-8	108	·	i	1
COc1cc(-c2nc3ccccn3c2NCC2CCCO2)ccc1O (centres undefined)	·	·	2	106	-1.2	i	1
COc1ccc(C(=O)NCC(=O)OCn2nnc3ccccc3c2=O)cc1OC	-7	93	-7	95	·	i	0.95
COC(=O)CSC1=C(C#N)C(=O)NC2(CCCCC2)S1	·	·	-7	99	-1.6	i	1
C(=C\c1ccccc1)/CN1CCN(C(c2ccccc2)c2ccccc2)CC1	-10	73	6	77	-0.7	i	0.81
CCOc1ccc(NC(=O)c2csc3c2CCCC3)cc1	22	117	0	98	-1.0	·	·
c1ccc2c(c1)nc(-c1ccncc1)n1nnnc21	-16	169	-4	102	0.6	i	0.92
CCCC(c1nnnn1C(C)(C)C)N1CCN(Cc2ccccc2OC)CC1 (centres undefined)	-33	99	-5	102	·	i	0.9
c1ccc(-c2cc(N3CCCCCC3)n[nH]2)cc1	-13	114	-9	98	-1.0	i	1
Cc1c2c(nc3c(C)cccc13)OC(C)C2 (centres undefined)	-13	124	-14	104	1.1	i	0.89
S=c1nc[nH]c2c1sc1nc(-c3ccccc3)c3c(c12)CCCC3	·	·	-6	59	0.7	i	1

# Other structures:
compound	INS promoter inh	INS promoter inh cell count	PKD1 inh	RGS16-Gao	GALR2 ag	HSV replic up	HSV replic up primary fold
COc1ccc2[nH]c(=O)c(CN(C(=O)c3cccnc3)c3cccc(C)c3)cc2c1	·	·	·	100	·	i	1.1
O=C(Nc1cccc2ccccc12)c1ccccc1	·	·	·	88	·	i	0.99
O=C(CNc1ccc(Oc2ccccc2)cc1)N1CCOCC1	·	·	5	93	-4.3	i	0.91
Cc1nc2c(-c3ccc(F)cc3)c(C)nn2c(C)c1CCC(=O)NCCN1CCOCC1	·	·	-8	105	-0.6	i	1.1
COCCOC(=O)c1c(C)oc2ccc(OCc3cc(C(=O)OC)oc3C)cc12	3	86	1	102	0.1	i	0.85
CC(C)Cn1c(N)c(C(=O)COC(=O)c2cc(F)cc(F)c2)c(=O)n(C)c1=O	17	106	-2	108	·	i	0.92
CCOC(=O)CN1C(=O)CN(c2ccc(C)c(C)c2)C1=O	17	136	-8	105	-0.6	i	1
Cc1ccc(N2C(=O)C(F)(F)C2c2ccccc2)cc1 (centres undefined)	-7	78	-2	99	·	i	1.2
COc1c(O)cnn(-c2ccccc2)c1=O	·	·	·	102	·	i	0.9
O=C(O)C1CCC(=O)N(C2CCCCC2)C1c1ccccc1Cl (centres undefined)	·	·	·	96	·	i	1.1
COc1ccc(CC2(CO)CCN(Cc3cccc(OC)c3OC)CC2)cc1	·	·	-4	114	·	i	0.86
CN1CCN(C(=O)c2ccc(N3CCCC3=O)cc2)CC1	0	167	-9	137	-1.4	i	0.85
CN(C)S(=O)(=O)c1cccc(NC(=O)CSc2nnnn2-c2ccccc2)c1	·	·	·	97	·	i	0.68
CCOC(=O)NC1(C(F)(F)F)NC(=O)N(C2CCCCC2)C1=O (centres undefined)	10	83	2	50	-2.6	i	0.87
COC(=O)c1cc(C(=O)OC)cc(-n2c(C)cc(C(=O)CC#N)c2C)c1	·	·	-4	83	-0.1	i	0.88
COc1cc(/C=N/NC(=O)CCn2cnc(-c3ccccc3)c2-c2ccccc2)ccc1O	·	·	3	98	0.2	i	0.93
CN1CCN(C(=S)NC(=O)c2ccc(-c3ccccc3)cc2)CC1	-16	95	8	96	·	i	1.1
COc1ccc(-n2c(=S)[nH]c3[nH]ncc3c2=O)cc1	·	·	·	103	·	i	0.97
C=CCn1cc(C(C)=O)c(=O)[nH]c1=O	18	115	-7	104	·	i	1.1
O=C(CCCn1c(=S)[nH]c2ccsc2c1=O)Nc1ccc2c(c1)OCCO2	·	·	-8	116	·	i	1.1
O=C(COC(=O)c1ccc(Br)cc1)NCc1ccc(F)cc1	·	·	-4	96	·	i	0.87
O=C1CC(N2CCOCC2)C(=O)N1c1ccccc1Cl (centres undefined)	-48	157	-10	106	-3.8	i	0.88
CSC1=NCCN1S(=O)(=O)c1ccc(C)cc1	79*	81*	-6	95	·	i	0.93
CCOC(=O)NN1C(=O)c2ccccc2NC1(C)C	29	77	-4	101	·	i	0.79

# A second format for some results above:
# Below each compound – INS promoter inh | INS promoter inh cell count | PKD1 inh | RGS16-Gao | GALR2 ag | HSV replic up | HSV replic up primary fold
- CC(C)Cn1c(N)c(C(=O)COC(=O)c2cc(F)cc(F)c2)c(=O)n(C)c1=O
→ 17 | 106 | -2 | 108 | · | i | 0.92
- CCOC(=O)NC1(C(F)(F)F)NC(=O)N(C2CCCCC2)C1=O (centres undefined)
→ 10 | 83 | 2 | 50 | -2.6 | i | 0.87
- COc1cc(/C=N/NC(=O)CCn2cnc(-c3ccccc3)c2-c2ccccc2)ccc1O
→ · | · | 3 | 98 | 0.2 | i | 0.93
- CN(C)S(=O)(=O)c1cccc(NC(=O)CSc2nnnn2-c2ccccc2)c1
→ · | · | · | 97 | · | i | 0.68
- O=C(CNc1ccc(Oc2ccccc2)cc1)N1CCOCC1
→ · | · | 5 | 93 | -4.3 | i | 0.91
- CCOC(=O)NN1C(=O)c2ccccc2NC1(C)C
→ 29 | 77 | -4 | 101 | · | i | 0.79
- COC(=O)c1cc(C(=O)OC)cc(-n2c(C)cc(C(=O)CC#N)c2C)c1
→ · | · | -4 | 83 | -0.1 | i | 0.88

# Source: PubChem (several laboratories)
